Compound activity (PubChem)
GALK inhibitor = galactokinase (human) inhibition; P51570; Purified GALK, Kinase-Glo residual ATP luminescence; Potency, µM (highest dose often 57.5 µM), for inactives: at the top dose activity change, negative = inhibition, hits mostly inhibitors; actives 0.007% (n = 270,000); note: potency is the fitted concentration of half-maximal effect; % is set by controls: 0 for no effect and ±100 for the full control effect
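Luminescence from leftover ATP (Ultra-Glo luciferase/luciferin) served as read-out after a 1 h room-temperature reaction of 5 nM GALK with 35 uM ATP and 100 uM galactose.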
Menin-MLL TR inh = inhibitors of human menin-MLL interaction, mutant MLL peptide. O00255. Menin + Texas Red MLL mutant peptide, fluorescence polarization. Potency, µM (titrated, usually from 61.6 µM), inactives show at the top dose FP activity change, negative = inhibition, usual class: inhibitors. actives 0.23% (n = 270,000); active = well fitted inhibition curve with a large enough effect in the polarisation, with a control signal flat, not every such curve was filed as active; inconclusive = small, poorly fitted or top-dose-only effect, or effect the other way, or a change in a side signal; inactive = no such curve, though single readings can be large or run the other way; the % refers to the polarisation; note: potency is the fitted concentration of half-maximal effect; % of control where 0% means no effect; many of its hits are not listed in these tables
USP2a block = inhibitors of human ubiquitin-specific protease USP2a; AID 463254; O75604; USP2 core, Ub-CHOP2 coupled fluorogenic reporter, 485/531; actives 0.01% (n = 330,000); Potency, µM (titrated, usually from 38.3 µM), inactives show top-dose activity change, negative = inhibition, usual class: inhibitors;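 note: potency is the fitted concentration of half-maximal effect; plate controls were DMSO wells for no effect and full inhibition by NEM control for full effect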
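USP2 core (10nM final) preincubated 30min RT with compound in 20mM Tris-HCl pH 8.0, 2mM CaCl2, 2mM beta-mercaptoethanol, 0.05% CHAPS; 25nM Ub-CHOP2 plus 25nM reporter substrate added, fluorescence (Ex485/Em531) read after 60min.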
PKM2 activator = PKM2 (human) enzyme activation | P14618 | purified PKM2, Kinase-Glo ATP luminescence, activation; response scale: 0% is enzyme alone, no compound | Potency, µM (doses to about 57.5 µM), inactives show top-dose activation, usual class: activators | actives 0.34% (n = 260,000) | AID 1631; note: potency is the fitted concentration of half-maximal effect; % is set by controls: 0 for no effect and ±100 for the full control effect; nearly all actives have a fitted effect of over 55% in size
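Purified hPK-M2 (>95%) run at intermediate activity with 0.1 mM ADP and 0.5 mM PEP in 50 mM imidazole pH 7.2, KCl, MgCl2; 1 h room temperature. ATP formed read by Kinase-Glo luminescence; normalized to uninhibited and no-enzyme controls.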
hERG WT inh = blocks the wildtype human KCNH2 potassium channel; Q12809; U2OS, BacMam KCNH2, thallium flux FluxOr; hits give low values; activity change, % at 1.84 µM; actives 0.37% (n = 340,000); AID 720551;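 active = maximum activity change below -70%; inconclusive = maximum activity change between -70% and -50%; inactive = maximum activity change above -50%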; note: % is set by controls: 0 for no effect and ±100 for the full control effect
Target sequence (Q12809 whole entry, looked up): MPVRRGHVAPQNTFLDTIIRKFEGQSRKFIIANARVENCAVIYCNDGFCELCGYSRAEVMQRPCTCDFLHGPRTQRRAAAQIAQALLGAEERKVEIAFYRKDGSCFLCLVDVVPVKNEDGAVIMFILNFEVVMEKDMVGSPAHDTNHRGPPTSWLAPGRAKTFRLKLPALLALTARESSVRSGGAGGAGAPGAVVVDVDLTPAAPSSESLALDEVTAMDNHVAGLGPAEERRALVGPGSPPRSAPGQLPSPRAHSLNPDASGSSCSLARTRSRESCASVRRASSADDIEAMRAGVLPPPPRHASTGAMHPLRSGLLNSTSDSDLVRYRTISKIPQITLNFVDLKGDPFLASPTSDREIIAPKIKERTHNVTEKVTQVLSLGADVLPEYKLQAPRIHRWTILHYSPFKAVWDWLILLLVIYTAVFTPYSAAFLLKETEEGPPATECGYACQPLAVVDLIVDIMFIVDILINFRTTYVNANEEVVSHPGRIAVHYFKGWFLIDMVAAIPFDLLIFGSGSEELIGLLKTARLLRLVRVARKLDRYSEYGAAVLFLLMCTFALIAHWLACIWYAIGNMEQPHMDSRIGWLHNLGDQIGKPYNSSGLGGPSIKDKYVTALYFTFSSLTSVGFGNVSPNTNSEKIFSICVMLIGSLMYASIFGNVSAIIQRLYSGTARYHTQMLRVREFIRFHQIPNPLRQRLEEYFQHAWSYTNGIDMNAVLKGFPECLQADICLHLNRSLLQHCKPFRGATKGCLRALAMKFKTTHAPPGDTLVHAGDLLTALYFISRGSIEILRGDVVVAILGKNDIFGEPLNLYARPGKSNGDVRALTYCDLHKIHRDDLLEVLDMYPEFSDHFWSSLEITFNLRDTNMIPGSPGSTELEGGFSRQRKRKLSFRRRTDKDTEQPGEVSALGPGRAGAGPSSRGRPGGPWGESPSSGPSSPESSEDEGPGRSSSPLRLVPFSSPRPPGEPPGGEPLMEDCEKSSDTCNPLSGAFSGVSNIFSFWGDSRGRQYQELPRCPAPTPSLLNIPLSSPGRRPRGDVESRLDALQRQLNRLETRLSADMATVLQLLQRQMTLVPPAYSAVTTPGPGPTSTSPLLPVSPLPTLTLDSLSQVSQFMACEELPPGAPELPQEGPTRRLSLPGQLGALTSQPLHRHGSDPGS
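U2OS cells were transduced with wild-type KCNH2 virus (2.03 x 10^8 / mL) for 4 h at room temperature, then cultured overnight at 37 C. Thallium flux was read with FluxOr dye. Rate constants were normalized to DMSO controls.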
MBNL1 CUG block = blocks human MBNL1 binding to CUG repeat RNA | Q9NR56 | TR-FRET MBNL1-His/biotin-(CUG)12 binding, 665/545 ratio | Potency, µM (series often up to 57.5 µM), for inactives: at the top dose activity change, negative = inhibition, usual class: inhibitors | actives 0.036% (n = 280,000) | AID 2675; active = well fitted inhibition curve with a large enough effect in the signal ratio, with a control signal flat, not every such curve was filed as active; inconclusive = small, poorly fitted or top-dose-only effect, or effect the other way, or a change in a side signal; inactive = no such curve, though single readings can be large or run the other way; the % refers to the signal ratio; note: potency is the fitted concentration of half-maximal effect; % is set by controls: 0 for no effect and ±100 for the full control effect
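Ratiometric TR-FRET (665 over 545 nm, excitation 340 nm) tracks disruption of MBNL1-His/biotin-(CUG)12 complex after 60 min at room temperature, with compounds at 92 nM to 58 uM final.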
Mito fusion yeast = mitochondrial division inhibition or fusion activation. S. cerevisiae fusion-defective mutant growth rescue, CellTiterGlo 48 h. Potency, µM (top dose mostly 46.1 µM), for the others: at the top dose growth rescue (activation), actives largely listed as activators. actives 0.23% (n = 320,000). AID 485298;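 note: potency is the fitted concentration of half-maximal effect; % of control where 0% means no effect; nearly all actives have a fitted effect of over 45% in size; temperature-sensitive fusion mutants such as fzo1-1 at 37 °C on non-fermentable ethanol glycerol medium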
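Growth-rescue viability read-out: after 48 h at the non-permissive 37C in glycerol/ethanol YPEG, yeast mitochondrial fusion mutants are measured by CellTiterGlo luminescence; compounds (23 nl pinned per well) restoring growth score as division inhibitors or fusion activators.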
Eya2 inh = Eya2 (human) phosphatase inhibition; recombinant Eya2, OMFP fluorescence dephosphorylation (OMFP is methylfluorescein phosphate); Potency, µM (doses to about 76.9 µM), for the others: at the top dose activity, negative = inhibition, usual class: inhibitors; AID 488837; O00167; actives 0.006% (n = 330,000); note: potency is the fitted concentration of half-maximal effect; % is set by controls: 0 for no effect and ±100 for the full control effect
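Eya2 (0.2 uM) preincubated 10 min at ambient with compound, then OMFP substrate added at 50 uM; 10 min reaction in 50 mM HEPES pH 7.5, 50 mM NaCl, 5 uM MgCl2, 0.05% BSA, 1 mM DTT. Fluorescence read at Ex 485/Em 525 nm.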
Chronic BCR inh = inhibitors of chronic active B-cell receptor signaling. ABC-DLBCL IkBa-CBG/CBR reporter, luminescence ratio, 4 h. Potency, µM (top dose mostly 46.1 µM), for inactives: at the highest dose ratio change, negative = lower green/red ratio, hits mostly inhibitors. actives 0.05% (n = 340,000). AID 493014; active = well fitted inhibition curve with a large enough effect in the signal ratio, with a control signal flat, not every such curve was filed as active; inconclusive = small, poorly fitted or top-dose-only effect, or effect the other way, or a change in a side signal; the % refers to the signal ratio;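 note: potency is the fitted concentration of half-maximal effect; plate controls were basal doxycycline-induced cells for no effect and cells given 10 µM MG132 for full effect; MG132 reads +100%, hits lower the ratio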
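Doxycycline induced both beetle luciferases in TMD8 lymphoma cells; IKK-driven degradation limits the IkappaBalpha-fused green signal, while red luminescence normalises for cell number and nonspecific effects. Compounds tested up to 46 uM, 4 hrs.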
ASM inhibitor = inhibitors of human secretory acid sphingomyelinase. P17405. placental ASM, HMU-PC fluorogenic substrate, 60 min. Potency, µM (doses to about 57.5 µM), for the others: top-dose activity change, negative = inhibition, most hits filed as inhibitors. actives 0.006% (n = 340,000); note: potency is the fitted concentration of half-maximal effect
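Fluorescence read-out (Ex 386 nm, Em 447 nm) after stopping the reaction at pH 10. Enzyme: ASM from human placenta; substrate HMU-PC0, 9 uM final; 60 min, 37 °C. Compound preincubation 10 min, ambient temperature.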
* hit, by the source's call; ? = inconclusive; · = no result given; & = joins results of further samples; [ ] = remark or other dose. Unless noted, calls come from the whole dose curve; as a rule, active = well fitted curve in the direction sought with a large enough effect; inconclusive = small, poorly fitted or top-dose-only effect, or another doubt; inactive = no such curve, though single readings can be large; an effect the other way counts as inactive or inconclusive. The list is partial; count on the stated rates, not on these rows.

mol | GALK inhibitor | Menin-MLL TR inh | USP2a block | PKM2 activator | hERG WT inh | MBNL1 CUG block | Mito fusion yeast | Eya2 inh | Chronic BCR inh | ASM inhibitor
C[C@@]12C(=O)OC(=O)[C@@]1(C)[C@@H]1CC[C@@H]2O1 | · | 19%[24.8 µM] | · | · | · | · | · | · | · | ·
NS(=O)(=O)c1ccc(CCNC(=O)CCCn2ncn3c(cc4occc43)c2=O)cc1 | -5% | 15% | ? | · | 3 | 1% | 4% | 3% | -6% | 2%
CCN(CC)CCN1C(=O)Cn2c(C)c(C)c3cccc1c32 | 0%&12% | -2%&-1% | 3%&-2% | 3%&21% | -9&54 | -10%&-9% | -4%&-1% | 11%&-1% | 0%&-2% | -3%&-2%
O=C(Nc1nc(-c2ccc(S(=O)(=O)N3CCOCC3)cc2)cs1)c1ccccc1 | 0% | ? | -2% | -1% | 9&9 | · | 1% | -4% | ? | -10%&-19%
CN(C(=O)CN(CCO)CC(=O)N(C)C(C)(C)Cc1ccccc1)C(C)(C)Cc1ccccc1 | · | ? | 2% | · | -5 | · | -2% | 4% | 6% | -3%
Cc1nnc(SCC(=O)NNC(=O)COc2ccc(Cl)cc2)n1C | -1% | 0% | -1% | -1% | 3 | 5% | -8% | -3% | 0% | -2%
Cc1ccc(C)c(Cn2nc(-c3cc(C)ccc3C)ccc2=O)c1 | 3% | ? | 4% | · | 1 | 2% | 31% | 4% | -1% | -5%
CC1(c2ccccc2)CC(C)(C)N(C(=O)CSc2nnc(N)s2)c2ccccc21 (stereo not drawn) | 2% | -6% | 4% | 8% | 3 | -15% | ? | -11% | 0% | -1%
Cn1nc(C(=O)NCc2ccc(Cl)cc2)c2c1-c1ccccc1S(=O)(=O)C2 | -1% | · | 2% | · | 14 | 3% | 17% | -3% | 3% | 3%
O=C1[C@@H](Oc2ccccc2)[C@@H](c2cnc3ccccc3c2)N1c1ccccc1 | · | · | -13% | · | -5 | · | · | -9% | ? | -6%
COc1ccc(Nc2ccc([N+](=O)[O-])cn2)cn1 | 0% | 0% | 2% | -2% | -3 | ? | 4% | ? | 1% | -7%
Cc1noc(C)c1CSCC(=O)Nc1nc2c(F)cc(F)cc2s1 | · | · | 0% | · | -3 | · | 13% | 8% | ? | 1%
CC(=O)Nc1ccc(C=NNC(=O)c2ccc(NS(=O)(=O)c3cccs3)cc2)cc1 | · | · | 2% | · | -6 | · | · | 1% | ? | 0%
COc1ccc(-c2csc3ncnc(N4CCN(c5cccc(Cl)c5)CC4)c23)cc1 | 4% | · | 1% | 0% | 7 | 2% | 1% | 4% | -5% | -9%
CCC(c1nnnn1C(C)(C)C)N1CCN(C2CCCC2)CC1 (stereo not drawn) | 0% | 14% | 2% | 0% | -4 | -5% | -6% | 5% | 6% | 1%
COC(=O)C1=NN(c2cccc3ccccc23)C2C(=O)N(c3ccccc3OC)C(=O)C12 (stereo not drawn) | -2% | · | -1% | -5% | 0 | · | 6% | -4% | 9% | 3%
O=C(O)CCC(=O)Nc1ccc(S(=O)(=O)Nc2nccs2)cc1 | · | -1% | 1% | 1% | -13 | -5% | 0% | 8% | 6% | 3%

Grouped by structure, those above with two or more sulfur atoms
mol | GALK inhibitor | Menin-MLL TR inh | USP2a block | PKM2 activator | hERG WT inh | MBNL1 CUG block | Mito fusion yeast | Eya2 inh | Chronic BCR inh | ASM inhibitor
O=C(Nc1nc(-c2ccc(S(=O)(=O)N3CCOCC3)cc2)cs1)c1ccccc1 | 0% | ? | -2% | -1% | 9&9 | · | 1% | -4% | ? | -10%&-19%
CC1(c2ccccc2)CC(C)(C)N(C(=O)CSc2nnc(N)s2)c2ccccc21 (stereo not drawn) | 2% | -6% | 4% | 8% | 3 | -15% | ? | -11% | 0% | -1%
Cc1noc(C)c1CSCC(=O)Nc1nc2c(F)cc(F)cc2s1 | · | · | 0% | · | -3 | · | 13% | 8% | ? | 1%
CC(=O)Nc1ccc(C=NNC(=O)c2ccc(NS(=O)(=O)c3cccs3)cc2)cc1 | · | · | 2% | · | -6 | · | · | 1% | ? | 0%
O=C(O)CCC(=O)Nc1ccc(S(=O)(=O)Nc2nccs2)cc1 | · | -1% | 1% | 1% | -13 | -5% | 0% | 8% | 6% | 3%

Quoted at random: 2 compounds from above, in no set order.
mol | GALK inhibitor | Menin-MLL TR inh | USP2a block | PKM2 activator | hERG WT inh | MBNL1 CUG block | Mito fusion yeast | Eya2 inh | Chronic BCR inh | ASM inhibitor
COc1ccc(Nc2ccc([N+](=O)[O-])cn2)cn1 | 0% | 0% | 2% | -2% | -3 | ? | 4% | ? | 1% | -7%
O=C1[C@@H](Oc2ccccc2)[C@@H](c2cnc3ccccc3c2)N1c1ccccc1 | · | · | -13% | · | -5 | · | · | -9% | ? | -6%
